Mtb hypoxia rep = PubChem AID 1159583. M. tuberculosis hypoxia-regulated fluorescent reporter, fluorescence. fluorescence inhibition, % (no concentration beside the values). 300,000 compounds, 0.1% hits;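 active = 35 to 45% if threefold the growth effect, above 45% if 1.5-fold the growth effect; inactive = the rest, general growth blockers included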;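 note: wells of about 50 µL received 100 nL stock; 0% = vehicle wells and 100% = reference inhibitor wells; whole bacteria with a GFP reporter of the hypoxia response; strong numbers were not always called active; many hits fall short of the cut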
BJeLR viability = MLPCN primary cell-based screen for lethality selective to Ras in HRASV12 cells; BJeLR (HRASV12) viability, CellTiter-Glo ATP luminescence, 48 h; reference of the scale not given here; inhibition, % (no concentration beside the values); 300,000 compounds, 0.17% hits;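 active = replicate mean above 50%; inconclusive = above 50% but judged a plate artefact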;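 note: 50 nL library stock added to about 25 µL; numbers are from one replicate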
PrP 5UTR inh = inhibition of PrP 5' UTR reporter expression; cell-based PrP 5' UTR mRNA reporter, plate reader; inhibition, % (concentration not given with the values); 340,000 compounds, 0.35% hits; AID 488862, 2010;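 active = every replicate at 50% or more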;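 note: 0 = median of the neutral control wells; tested in H4 reporter cells; numbers are from one replicate; inactives centre near -14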
RN4220 kill = growth inhibition of S. aureus RN4220, primary screen, OD600; 16 h; 330,000 compounds, 0.33% hits; inhibition, % (test concentration not listed);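 active = z-score of -3 or lower and OD600 up to 0.18 on both plates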;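 note: plate controls were untreated cells for no effect and reference antibiotic for full effect; stock transfer was 100 nL into about 80 µL; one replicate is shown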
Autofluor counter = flagged as autofluorescent in microsphere protease counterscreen; compound autofluorescence counterscreen, microsphere flow cytometry; stronger effect = higher value; fluorescence intensity (test concentration not listed); 360,000 compounds, 3.1% hits;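 active = at least 3 SD above the mean of all compounds, about 16000 in these data; inconclusive = too few beads counted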;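 note: 100 nL of 1 mM stock went into each well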
ugtP null kill = growth inhibition of ugtP-null S. aureus, primary screen, RN4220 ugtP deletion, OD600. 16 h; some inactives read as strong as hits. growth inhibition, % (no concentration beside the values). 330,000 compounds, 0.54% hits. AID 1259309, 2017;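 active = z-score under -3 and OD600 up to 0.15 on both plates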;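 note: plate controls were untreated wells for no effect and antibiotic for full effect; wells of about 80 µL received 100 nL stock; the first replicate is given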
Mtb hypoxia rep growth = also measured in Mtb hypoxia rep; calls as there; growth inhibition, %; measured here: M. tuberculosis growth (absorbance);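 0% = vehicle and 100% = reference antibiotic; read after six days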
* = called active by the depositor; ? = inconclusive; . = no result given. Hits appear at their usual frequency (roughly 4% active in at least one column).

SMILES	Mtb hypoxia rep	Mtb hypoxia rep growth	BJeLR viability	PrP 5UTR inh	RN4220 kill	Autofluor counter	ugtP null kill
COC(=O)c1cc(C(=O)OCC(=O)Nc2cc(C)on2)cc([N+](=O)[O-])c1	-4.5	-2.2	5.4	-11.5	-0.3	5119	-0.5
CCOc1ccc(NS(=O)(=O)c2ccc(Cl)c(C(=O)N(C)Cc3cccnc3)c2)cc1	5.5	11.8	.	.	3.9	?	2.1
COc1cccc(CN(C)C(=O)c2cc(-c3cccs3)nc3ccccc23)c1	1.3	8.4	-1.9	-20.9	8.9	5297	-0.6
Cn1nc(-c2ccc(C(=O)N3CCN(Cc4ccccc4)CC3)cc2)c2ccccc2c1=O	-10.2	21.3	-2.0	4.9	2.0	9408	1.8
CN1CCN(C(=O)C2=C[C@H](C(C)(C)C)C[C@H](OCCCCO)O2)CC1	.	.	1.2	-7.6	.	3920	.
CCc1ccc(NS(=O)(=O)c2ccc3[nH]cc(C(=O)N4CCc5ccccc54)c(=O)c3c2)cc1	.	.	4.8	-34.2	-2.0	1967	22.3
O=C(NCC(O)COc1ccc([N+](=O)[O-])cc1)c1ccccc1 (centres undefined)	2.2	4.0	-4.5	-23.1	3.9	5515	11.6
CNC(=O)c1nnn(-c2ccccc2)c1C(=O)NC	.	.	6.2	3.5	0.8	2689	1.7
Cn1c(SCc2ccc(Cl)cc2)nnc1C1CC1	13.6	11.5	-5.8	-11.3	5.0	3942	4.0
O=C(O)c1ccc(C2SCC(=O)N2Cc2ccco2)cc1 (centres undefined)	-2.9	1.5	6.3	-13.8	6.1	4223	7.1
Cc1ccc(OCc2ccc(C(=O)Nc3cc(C)on3)o2)c([N+](=O)[O-])c1	-1.6	6.8	-4.6	-1.0	-0.4	?	-3.3
Cc1cc(NC(=O)CCCC(=O)OCC(F)(F)C(F)F)cc(C)c1C(=O)O	5.8	5.7	-4.7	-5.2	0.8	9369	-4.4
Cc1[nH]n(-c2ccccc2)c(=O)c1C=NNC(=O)c1cccc([N+](=O)[O-])c1	14.2	1.0	.	.	-12.3	.	32.6
COc1ccc(OC)c(NC(=O)N[C@@H](Cc2ccccc2)C(=O)O)c1	5.6	2.3	6.8	.	7.9	11023	3.6
COc1ccc(C2CC=C(C(=O)O)C(c3ccc(F)cc3)N2S(=O)(=O)c2ccccc2C)cc1 (centres undefined)	6.7	11.6	.	.	14.1	.	-7.0
CN1CN(C)c2ccc([N+](=O)[O-])c3cccc1c23	9.7	-1.1	4.6	-16.8	4.8	3205	6.7
Cc1ccc([N+](=O)[O-])cc1NC(=O)CSc1nnc(C)n1CC1CCCO1 (centres undefined)	9.8	6.7	-0.1	-7.3	1.2	4932	12.1
Cn1c(=O)c2c(nc(OCc3cccnc3)n2Cc2ccccc2)n(C)c1=O	18.7	14.6	-0.5	-31.4	-12.7	2898	-2.5
Cc1onc(-c2ccccc2)c1C(=O)N1CCN(S(=O)(=O)c2ccccc2C(F)(F)F)CC1	-7.8	-6.5	17.2	-16.1	1.7	3573	4.8
Oc1ccccc1CNCCCNCc1ccccc1O	4.1	7.3	2.4	-12.5	-2.4	3560	4.0
CC(C)NC(=O)C1C[C@@]1(C)C(NC(=O)OCc1ccccc1)c1ccccc1 (some centres undefined)	13.0	8.6	.	.	9.1	.	-1.0
CCC1=NN2C(=N)/C(=C\c3cccn3-c3ccc(C)cc3C)C(=O)N=C2S1	-9.5	2.3	-14.3	3.7	1.0	2736	-10.2
Cc1cccc(Nc2nc(N)nc(CN3CCN(c4ccccc4)CC3)n2)c1	7.4	2.5	6.4	-17.6	0.8	23528*	-4.6
Cc1cc(C)n(NC(=S)NC2CCCC2)c(=O)c1C#N	0.1	-6.0	-7.9	-34.8	-2.3	4391	-3.9

Quoted at random: two records from the list, in no set order.
SMILES	Mtb hypoxia rep	Mtb hypoxia rep growth	BJeLR viability	PrP 5UTR inh	RN4220 kill	Autofluor counter	ugtP null kill
Cc1onc(-c2ccccc2)c1C(=O)N1CCN(S(=O)(=O)c2ccccc2C(F)(F)F)CC1	-7.8	-6.5	17.2	-16.1	1.7	3573	4.8
COc1cccc(CN(C)C(=O)c2cc(-c3cccs3)nc3ccccc23)c1	1.3	8.4	-1.9	-20.9	8.9	5297	-0.6

4 compounds from above, sorted by SMILES length, ascending.
SMILES	Mtb hypoxia rep	Mtb hypoxia rep growth	BJeLR viability	PrP 5UTR inh	RN4220 kill	Autofluor counter	ugtP null kill
CN1CN(C)c2ccc([N+](=O)[O-])c3cccc1c23	9.7	-1.1	4.6	-16.8	4.8	3205	6.7
Cc1ccc([N+](=O)[O-])cc1NC(=O)CSc1nnc(C)n1CC1CCCO1 (centres undefined)	9.8	6.7	-0.1	-7.3	1.2	4932	12.1
Cc1[nH]n(-c2ccccc2)c(=O)c1C=NNC(=O)c1cccc([N+](=O)[O-])c1	14.2	1.0	.	.	-12.3	.	32.6
COc1ccc(C2CC=C(C(=O)O)C(c3ccc(F)cc3)N2S(=O)(=O)c2ccccc2C)cc1 (centres undefined)	6.7	11.6	.	.	14.1	.	-7.0

New compounds follow
SMILES	Mtb hypoxia rep	Mtb hypoxia rep growth	BJeLR viability	PrP 5UTR inh	RN4220 kill	Autofluor counter	ugtP null kill
c1csc(-c2nnc(COc3ncnc4sccc34)o2)c1	9.2	9.2	-6.5	-11.7	3.1	4628	-3.3
CSc1cccc(NC(=O)c2sc3nc4n(c(=O)c3c2C)CCC4)c1	6.1	-1.3	-2.2	-11.0	1.5	5192	7.0
COc1ccc(NC(=O)/C=C/C(=O)O)c(OC)c1	-0.8	10.4	7.7	-24.8	0.8	.	-0.4
CC(C)C/C(O)=C/c1nc2cc(Cl)ccc2oc1=O	15.0	3.0	1.7	-30.7	9.6	2477	8.0
Cc1ccc(C(C(=O)NC2CCCC2)N(C(=O)c2csnn2)c2cccc(F)c2)o1 (centres undefined)	1.2	3.6	-13.5	-13.5	-1.9	3503	5.5
COc1cccc(N=CC2=C(O)CCCC2=O)c1	-8.4	11.5	-3.2	-25.5	4.1	2267	4.3
O=C(Nc1ccncc1)c1ccccc1F	17.8	13.9	12.6	-9.0	-2.8	4719	9.3
O=C(CSCc1ccc(F)cc1)Nc1nc2c(s1)CCCC2	.	.	-2.9	-13.9	7.6	2371	-3.3
C=CCNC(=O)C1CC(=O)N(c2ccc(OCC(=O)Nc3ccc(C)cc3)cc2)C1 (centres undefined)	.	.	-1.3	-27.4	3.5	3588	8.5
CCSc1ccccc1C(=O)N1CCCC1	-10.0	-1.9	5.8	-26.7	-2.6	23440*	-3.2
CC(NC(=O)CN1CCN(c2cccc(Cl)c2)CC1)c1ccccc1 (centres undefined)	3.6	9.5	3.8	-9.2	0.4	3043	5.8
Cc1cc(Br)ccc1NC(=O)CN(C)C(=O)C1CCN(C(=O)c2ccc(F)cc2)CC1	3.5	-1.5	3.0	-20.8	2.4	?	6.4
CCOC(=O)N1CCN(C(=O)c2c(Cl)cnn2C)CC1	8.6	-1.1	5.6	-4.4	-1.3	5968	-0.5
CCOC(=O)C1CCCN(C(=O)C2CCN(Cc3nc(-c4ccc(Cl)cc4)oc3C)CC2)C1 (centres undefined)	-7.3	-4.1	.	-13.0	2.9	5209	13.8
O=C(NN=Cc1ccncc1)c1cccs1	2.7	2.3	.	.	1.3	.	2.4
CCc1cccc(CC)c1NC(=O)COC(=O)CCc1cc(OC)c(OC)c(OC)c1	7.6	4.2	-5.3	-21.6	6.1	2078	3.1
CC(=O)CC(=O)Nc1nc(C)cc(C)n1	4.9	6.9	11.6	-22.0	4.1	4651	6.3
CC(C)(C)C(=O)O/N=C(\N)COc1cccc(Cl)c1	.	.	-4.1	-53.0	.	4785	.
Clc1ncnc2scc(-c3ccc(Br)cc3)c12	.	.	-9.1	1.8	.	2255	.
CC(=O)Oc1ccc2c(=O)c(/C=N/c3cc(=O)[nH]c(=S)[nH]3)coc2c1	.	.	1.6	-34.9	.	4418	.
CC(=O)c1c(-c2ccc(Cl)cc2)c2ccccc2[nH]c1=O	0.7	9.2	-8.3	-17.7	6.4	2599	6.9
C[N+](C)(N)CCOC(=O)C(O)(c1ccccc1)C1CCCCC1 (centres undefined)	2.5	-3.6	-6.7	-16.9	3.2	3051	11.5
COc1ccc(CNC(=O)c2cc(COc3c(F)cccc3F)on2)cc1OC	-1.9	11.0	6.2	-9.3	-2.0	2074	13.0
COc1cc(C=NNC(=O)CN2CCCCC2)ccc1OCc1ccc(Br)cc1	2.6	6.6	.	.	-0.4	.	3.0
COc1ccc(S(=O)(=O)NCc2cccnc2)cc1	3.1	0.0	-3.9	-11.0	1.3	3384	5.7
CSc1ccc(NC(=O)NCCCN2CCN(c3ccccc3F)CC2)cc1	.	.	7.5	-15.5	-3.1	3458	10.2
CC(=O)c1c(NC(=O)C(C)C)nc(C)nc1-c1ccccc1	.	.	3.9	-1.8	1.3	2736	4.0
CC12CN3CCN(CC(C3)C1O)C2 (centres undefined)	.	.	2.5	-18.1	-2.5	2680	3.9
O=C1C(NS(=O)(=O)c2ccc(Cl)cc2)=C(N2CCCCC2)C(=O)c2ccccc21	-3.3	9.1	5.4	-14.6	6.9	2260	-18.4
C(=C\c1ccccc1)/CSc1nnc(-c2ccccn2)n1Cc1ccco1	.	.	34.2	-20.4	.	2904	.
C#CCOC(=O)C(NC(=O)c1ccccc1)=C1CCCCC1	.	.	-10.7	-7.8	3.2	2752	2.1
COc1ccc(CCNC(=O)Cn2nnc(-c3ccccc3F)n2)cc1OC	2.5	9.1	1.1	-12.0	4.1	10067	-4.1
Cc1ccc(OCc2nc(-c3ccccn3)no2)cc1	0.1	3.2	0.8	-79.3	2.4	5446	6.7
Cn1c(SCC(=O)Nc2cccc(F)c2)nnc1-c1cc2ccccc2o1	.	.	1.3	-21.6	-1.2	4638	4.3
Cc1nc2ccccc2c(=O)n1/N=C/c1ccc(O)cc1	.	.	-10.1	-18.3	.	9623	.
COC(=O)c1c(C(=O)OC)c(-c2ccc(OC)cc2)n2c1CS(=O)C2 (centres undefined)	10.4	-1.3	-3.9	-3.4	4.0	2986	7.3
O=C(Nc1cccc(-c2cccc(F)c2)c1)C1CCN(CC2CCOC2)CC1 (centres undefined)	3.1	-1.5	3.9	-1.3	3.4	4525	4.7
O=C(O)c1ccc(-c2ccccc2)[nH]1	8.4	19.8	4.7	-21.2	9.1	22282*	-9.6
O=C(CSc1ccc([N+](=O)[O-])cc1)NNC(=O)c1ccccc1F	5.6	7.6	5.6	-18.0	3.8	3482	-1.2
COC(=O)[C@]1(C)CCC[C@@]2(C)C3CC[C@]4(OC(C)=O)C[C@@]3(CCC21)CC4=NO (some centres undefined)	0.5	10.7	.	-7.5	20.9	2956	-16.3
CCOC(=O)c1ccc2nc(C(F)(F)F)[nH]c(=O)c2c1	.	.	-0.8	-1.3	20.3	4884	7.9
CN=Cc1sc2ccccc2c1O	9.0	9.8	-7.2	-14.1	-0.2	5841	2.1
O=[N+]([O-])c1ccc(NN=Cc2cn(-c3ccccc3)nc2-c2ccccc2)cc1	11.7	1.9	.	.	17.5	.	-9.7
COc1ccc(C(CC(=O)Nc2cc([N+](=O)[O-])ccc2OC)c2ccccc2)cc1 (centres undefined)	1.5	-1.3	2.4	-3.6	-5.4	2588	2.5
CSc1snnc1-c1ccccc1	10.7	9.4	0.8	-23.0	8.7	4106	4.8
CN1CC[C@@]2([C@@]34CCN(C)C3Nc3ccccc34)c3ccccc3NC12 (some centres undefined)	.	.	1.8	-19.8	0.1	5579	1.3
Cc1ccc(C)c(S(=O)(=O)N2CCN(c3nc(-c4cccnc4)nc4ccccc34)CC2)c1	-9.9	-4.6	.	6.5	0.5	?	-13.3
CSc1nc(NC(C)(C)C)nc(Oc2ccc(=O)n(C)n2)n1	-0.4	-3.6	-4.7	2.8	-1.1	?	-2.1
CC(C)C(=O)Nc1ccc(C(=O)NN=CC2CC3C=CC2C3)cc1 (centres undefined)	9.5	3.6	.	.	0.3	.	5.7
Cc1ccc(NC(=O)[C@@H]2CCCN2S(=O)(=O)c2ccccc2F)cc1S(=O)(=O)N1CCOCC1	11.7	8.8	-0.7	-9.5	1.4	2277	4.1
Cc1cc(Br)ccc1SCC(=O)OCC(=O)NC(C)c1ccccc1 (centres undefined)	-3.9	3.0	-3.9	-15.3	5.2	1934	9.3
CCC(=O)Nc1ccc(C(=O)NNC(=O)COc2cc(C)ccc2C)cc1	11.4	6.6	-17.4	-10.3	-0.3	2556	3.6
COC(=O)C(C)NC(=S)N1CCN(c2c(F)cc3c(=O)c(C(=O)O)cn(C4CC4)c3c2OC)CC1C (centres undefined)	.	.	4.2	-24.7	100.1*	3918	99.7*
CN1CCN(CC(=O)Nc2nc3c(s2)CCCC3)CC1	-2.1	8.8	-7.8	-15.2	4.8	3329	7.1
